# Bioassay records: PubChem BioAssay, several laboratories
# UUG fidelity – alters start codon recognition fidelity in yeast; AID 602363; hit rate 0.13% among 350,000; S. cerevisiae UUG-firefly luciferase reporter, luminescence/redox ratio; activity score, % at 18.7 µM;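 active = replicate mean at a twofold rise or more, about +100% in these data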;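 also: firefly luciferase made from a UUG start codon reports start codon fidelity; reporter light over untreated wells divided by growth signal over untreated wells; some hits fall short of that in this replicate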
# PABP FP inh – blocks human PABP binding to poly(A) RNA; P11940; fluorescence polarization; inhibition, % at 35 µM; hit rate 1% among 290,000; AID 2014;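 active = 50% or more with normal probe brightness, or confirmed in later tests; inconclusive = above 50% with abnormal brightness, or retests that disagree; inactive = below 50% or failed in later tests; about a fifth of its hits are not listed in these tables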;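 also: calls also rest on retests at 20 µM and on dose response follow-up; controls were probe without protein and protein plus probe with vehicle; some compounds called inactive have numbers as strong as hits; many hits fall short of the cut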
# Rce1 inh – yeast Ras-converting enzyme inhibition; Q03530; yeast membranes, quenched prenylated peptide cleavage fluorescence; calls only; hit rate 0.27% among 290,000; AID 2563;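 active = fall in fluorescence gain of 50% or more versus controls, with final raw signal at or below 3038400; inconclusive = same 50% fall but final raw signal above 3038400; inactive = fall in fluorescence gain under 50%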;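 also: plate controls were neutral control wells for no effect and wells lacking membranes for full effect; tested at 10 µM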
# Target sequence (Q03530 whole entry, looked up): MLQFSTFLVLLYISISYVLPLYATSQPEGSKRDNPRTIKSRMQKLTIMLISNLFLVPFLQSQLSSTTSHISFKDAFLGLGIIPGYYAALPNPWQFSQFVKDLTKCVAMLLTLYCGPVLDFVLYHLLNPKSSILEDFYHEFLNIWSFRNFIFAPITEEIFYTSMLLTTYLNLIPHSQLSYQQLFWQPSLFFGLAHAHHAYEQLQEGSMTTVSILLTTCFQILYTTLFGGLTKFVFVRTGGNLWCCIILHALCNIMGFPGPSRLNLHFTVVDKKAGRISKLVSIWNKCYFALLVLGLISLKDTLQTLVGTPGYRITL
# eIF4H FP inh – inhibitors of RNA binding by human eIF4H; eIF4H fluorescence polarization binding assay; AID 2012; hit rate 0.94% among 290,000; inhibition, % at 35 µM;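 active = 50% or more with normal probe brightness, or confirmed in later tests; inconclusive = above 50% with abnormal brightness, or retests that disagree; inactive = below 50% or failed in later tests; about a fifth of its hits are not listed in these tables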;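 also: calls also rest on retests at 20 µM and on dose response follow-up; 0% = protein and probe with vehicle and 100% = probe without protein; strong numbers were not always called active; many hits fall short of the cut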
# CSC inhib – blocks cancer stem cells; cancer stem cell-like cells viability, luminescence; inhibition, % at 7.5 µM; hit rate 1.1% among 300,000;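 active = mean at 75% or more and at least half the replicates too; inconclusive = mean and replicates disagree; tested in HMLE shEcad cells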;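 also: 0% = median of negative and 100% = median of positive control wells; the first replicate is given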
# Env fusion inh – blocks HIV Env-driven cell-cell fusion. AID 651610. hit rate 1.1% among 360,000. inhibition, % at 12.3 µM. HeLa-JRFL Env/CEM21 cell fusion, luciferase;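 active = mean replicate inhibition score of at least 50 and every replicate individually at or above 50; inconclusive = only one of the two criteria met; inactive = mean below 50 and not all replicates reaching 50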;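 also: 0% = plate neutral controls and 100% = maraviroc near 300 nM; one replicate is shown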
# MT1-MMP act inh – MT1-MMP (human) activation inhibition. HT1080 RFP-PRO-GFP cells, GFP/RFP ratio fluorescence, overnight; percent of plate control window, DMSO zero. AID 651647. GFP/RFP ratio change, % at 20 µM. P50281. hit rate 0.061% among 360,000;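 active = GFP/RFP ratio change of at least 30% with cell ATP level not reduced by more than half and red fluorescence within 50% of control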; also: strong numbers were not always called active
#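 Test system: HT1080 cells expressing an RFP-PRO-GFP fluorescent reporter construct / Compound dosing: single-point 20 µM compound, 1% DMSO / Schedule: cells overnight before dosing, compound overnight, 37 °C, 5% CO2 / Evaluation: GFP/RFP fluorescence ratio / Control set: DMSO and RFP-L50D-GFP cell wells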
# eIF4H FP inh retest – also measured in eIF4H FP inh; calls as there; inhibition, %; compound at 20 µM; confirmation average;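 mean of two retest wells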
# PABP FP inh retest – second read-out of PABP FP inh, no call of its own (marks repeat the call); inhibition, %; compound at 20 µM; confirmation repeats;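 mean of two retest wells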
# MT1-MMP act inh RFP – further read-out of MT1-MMP act inh, marked with its call; RFP signal change, %; measured here: RFP expression control read;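 0 = vehicle wells; hits needed this value within 50% of zero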
# * hit, by the source's call; i = inactive; ? = inconclusive; / = no result given; & = joins results of further samples. This is a subset; the hit share may differ from the screen's.
SMILES,UUG fidelity,PABP FP inh,Rce1 inh,eIF4H FP inh,CSC inhib,Env fusion inh,MT1-MMP act inh,MT1-MMP act inh RFP,others
Cc1ccc(Cc2c(-c3ccccc3)nc3cc(C)ccn23)cc1,6,/,/,/,/,-3,0,-2,
COC(CSc1nc(N)c2c3c(sc2n1)CN(C)CC3)OC,3,9,?,10,1,0,-3,-1,
CCN1CCN(c2nc(-c3cccs3)nc3ccccc23)CC1,-16,35,i,6,-1,/,-1,3,
CCn1c(SCc2nc3ccccc3nc2C)nnc1-c1cccs1,-19,-10,i,2,-15,/,-5,-9,
COc1ccc(/C=C2\SC(=O)N(CCC(=O)N3CCCCC3CCO)C2=O)cc1 (stereo not given),-10,/,i,/,-5,19,-2,2,
O=C(NCC(=O)N(c1cccnc1)C(C(=O)NC1CCCC1)c1ccccc1F)c1ccco1 (stereo not given),-13,2,i,-5,/,/,0,3,
Cn1c(C2=C(O)CN(Cc3ccccc3)C2=N)nc2ccccc21,/,-11,i,-10,-24,-15,-2,3,
Cc1ccc2c(CN3CCCCC3C)cc(=O)oc2c1C (stereo not given),-12,10,i,-2,/,9,1,0,
COc1cccc(CNC(=O)CCC2CCCN(C(=O)C3=CC(=O)CC(C)(C)O3)C2)c1 (stereo not given),-4,-10,i,-5,-9,-3,5,1,
O=C(CSc1nnc(CN2CCCC2)n1-c1ccc(F)cc1)c1ccc2c(c1)OCO2,-14,/,/,/,/,-2,-4,-3,
Cc1ccc(OCC(=O)NC(=S)Nc2ccc(Br)c(C)n2)cc1,-13,-3,i,-5,-12,/,8,2,
CC1(C(=O)N2CCN(c3ccc([N+](=O)[O-])cc3)CC2)CC1(Cl)Cl (stereo not given),-9,0,i,-11,21,16,3,-13,
CC(C)CN(CC(C)C)CC(O)COc1ccccc1Br (stereo not given),-4,4,i,-1,7,14,3,1,
COC(=O)C1=C2SCC(=O)N2C(N)=C(C#N)C1,-4,0,i,-9,-4,4,-10,-2,
CC(=O)c1c(C)[nH]c(C(=O)Nc2nc(-c3ccc(-c4ccccc4)cc3)cs2)c1C,7,0,i,-12,50,-12,-13,-12,
COc1cccc(Nc2nc(C(N)CCc3ccccc3)cs2)n1 (stereo not given),-7,/,/,/,/,70*,-4,-2,
O=C(CCCCn1c(=O)[nH]c2ccccc2c1=O)N1CCN(c2ncccn2)CC1,10,-3,i,-1,2,-5,0,5,
Cn1cnnc1SCC(=O)Nc1sccc1C#N,-11,5,i,6,6,/,/,/,
COc1ccc(CSc2nc3ccccc3c(=O)n2CCCN2CCOCC2)cc1F,-3,8,i,-3,/,36,-5,0,
CC(=O)c1ccc(N2CCC(c3cc(-c4ccc(Cl)cc4Cl)n[nH]3)CC2)c([N+](=O)[O-])c1,-11,14,i,6,118*,29,-12,-23,
CCc1nnc(NC(=O)CCC(=O)N2CCN(CCOc3ccc(C)cc3)CC2)s1,-21,-6,i,50*,-11,/,0,-5,eIF4H FP inh retest=69*;PABP FP inh retest=8
CCOP(=O)(OCC)/C(C#N)=C/c1ccc([N+](=O)[O-])cc1,/,9,i,-16,-13,18,2,1,
O=C(NNC(=S)Nc1ccc(Br)cc1)c1ccccc1,-39,2,i,9,1,-48,2,2,
Cc1c(C)n(CC(O)CN2CCN(C)CC2)c2ccccc12 (stereo not given),1,-4,i,-14,-16,-2,0,2,
CC1=C(C(=O)OCc2ccccc2)C(c2ccccn2)c2c(n(C)c(=O)n(C)c2=O)N1 (stereo not given),/,7,i,-1,-37,i,5&2,-2&-1,
CCOC(=O)/C(C#N)=C/Nc1ccccc1OC(F)(F)F,5,0,i,-2,5,-2,2,0,
Cc1c(NC(=O)COc2ncnc3c(Cl)cc(Cl)cc23)c(=O)n(-c2ccccc2)n1C,-13,5,i,-2,-23,-66,10,2,
COc1cc2c(cc1OC)CN(C1CC(=O)N(c3c(C)cccc3C)C1=O)CC2 (stereo not given),/,11,i,-9,-16,-1,-4,0,
C=CCn1c(=O)c2ccccc2n2c(SCc3c(C(=O)OCC)oc4ccccc34)nnc12,-21,-7,i,-8,0,-26,-4,1,
CC(C)(C)c1ccc(NC(=O)CC2(C(F)(F)F)OCCO2)cc1,-15,-6,i,-7,6,-52,6,0,
CCc1ccc(S(=O)(=O)NCCc2cn3ccc(C)cc3n2)s1,/,-11,i,-10,-17,-27,3,2,
Cc1sc(NC(=O)Cc2ccc3c(c2)OCO3)nc1-c1ccc2c(c1)CCN2C(=O)c1cccc(F)c1,/,-5,i,-4,24,48,-8,-28,
Cc1nc2sc(-c3ccccc3)cc2c(=O)n1-n1cccc1,-23,-4,i,-10,25,/,-4,-8,
CCOC(=O)c1ccccc1NC(=O)CN(c1ccccc1)S(=O)(=O)N(C)C,-7,2,i,8,-7,/,-1,-4,
O=C(CC(Nc1ccc(Cl)cc1Cl)C(=O)O)c1ccccc1 (stereo not given),-36,14,i,-8,-11,6,-1,-1,
CCn1nc(C)c(/C=N\NC(=O)c2cccc(OC)c2)c1C,-8,-1,i,4,-6,/,5,11,
COc1ccccc1OCCNC(=O)C1CC(=O)N(c2cccc(SC)c2)C1 (stereo not given),25,/,i,/,10,/,-1,1,
O=C1CN(C(=O)CNCc2ccccc2)c2ccccc2N1,3,-6,i,3,23,-13,-4,-4,
CCOc1ccc(NC(=O)C2CCN(S(=O)(=O)c3ccc4c(c3)N(C(C)=O)CCO4)CC2)cc1,-6,-13,i,-1,-27,9,5,-2,
COC(=O)c1cc(C(=O)c2cccc(Cl)c2Cl)cn1C,0,-1,i,-6,11,-2,6,-4,
COC(=O)CN(c1cc(Cl)ccc1OC)S(=O)(=O)c1ccc(OC)c(OC)c1,-5,-6,i,2,-10,/,2,2,
COC(=O)CCC(NS(=O)(=O)OCC(Cl)(Cl)Cl)c1ccccc1 (stereo not given),-2,14,i,2,-11,-10,1,1,
O=C(O)C1C2C=CC3(CN(C/C=C/c4ccccc4)C(=O)C13)O2 (stereo not given),-5,-5,i,0,/,-136,1,4,
COc1cccc(NC(=O)CN(C)C(=O)c2ccccc2OCC(=O)Nc2cccc(C(F)(F)F)c2)c1,6,/,i,/,-1,-6,-2,-6,
Cc1cc(C)n(CC(=O)N/N=C/c2ccccn2)n1,-11,20,i,2,-46,2,-4,2,
CCN(CC)c1ccc(C2NC(=O)NC(C)=C2C(=O)Nc2ccccc2)cc1 (stereo not given),2,15,i,-7,-13,/,2,13,
Cc1ccc(CNC(=O)C2CCN(S(=O)(=O)c3ccc4c(c3)CC(C)N4C(=O)C3CC3)CC2)cc1 (stereo not given),11,2,i,-14,-1,19,-1,-13,
CCOC(=O)[C@H]1[C@H]2COc3ccc(Br)cc3[C@H]2N2C(=O)CNC(=O)[C@@]12C,-7,/,/,/,-9,-23,-2,-1,
CCOc1cc(C(=S)N2CCCCC2)ccc1OS(=O)(=O)c1ccc(Br)cc1,-40,0,i,5,18,17,4,-14,
CCn1c(=O)c(=O)n(CC)c2cc(S(=O)(=O)Nc3ccc(C)cc3)ccc21,/,-4,i,-4,-4,-3,4,5,
Cn1c(=O)c2c(nc(Br)n2CC(=O)c2cccs2)n(C)c1=O,-8,3,i,-6,-12,/,4,3,
O=C(CSc1nc2cc(Cl)ccc2s1)NCC1CCCO1 (stereo not given),/,/,/,/,2,-1,-4,3,
COc1ccc(S(=O)(=O)NCCc2cn3nc(C)c(C)nc3n2)cc1,-18,-7,i,-18,-9,1,3,4,
CC1(C)CC(=O)c2c(O)cc(OCC(=O)Nc3ccc(CCO)cc3)cc2O1,-10,8,i,4,-13,/,0,-16,
CC(=NNC(=O)c1ccc(NS(=O)(=O)c2cccs2)cc1)c1ccc(OCC(N)=O)cc1,-7,/,/,/,-4,-8,-1,6,
O=S(=O)(c1ccccc1)N1CCC(N2CCCCCC2)CC1,-3,-10,i,4,30,5,1,3,
CC(C)c1cc(-c2cc(-c3ccc(Cl)cc3)on2)nc(NC2CCCC2)n1,-19,3,i,9,40,-10,-5,1,
Cc1ccc(C(=O)Nc2nc3nc(-c4ccccc4)cc(=O)n3[nH]2)cc1,-11,10,i,-1,-3,/,1,1,
CC(=O)N1CCN(c2ncnc3sc(-c4ccccc4)cc23)CC1,/,-4,i,-8,19,7,-4,-2,
CC(C)Cc1ccc(/C=C/C(=O)N2CCOCC2)cc1,6,10,i,3,3,-37,0,-5,

# Ordered by molar mass (smallest number first): five of the compounds above.
SMILES,UUG fidelity,PABP FP inh,Rce1 inh,eIF4H FP inh,CSC inhib,Env fusion inh,MT1-MMP act inh,MT1-MMP act inh RFP,others
CC(=O)N1CCN(c2ncnc3sc(-c4ccccc4)cc23)CC1,/,-4,i,-8,19,7,-4,-2,
Cn1c(=O)c2c(nc(Br)n2CC(=O)c2cccs2)n(C)c1=O,-8,3,i,-6,-12,/,4,3,
CC1(C)CC(=O)c2c(O)cc(OCC(=O)Nc3ccc(CCO)cc3)cc2O1,-10,8,i,4,-13,/,0,-16,
CCOc1cc(C(=S)N2CCCCC2)ccc1OS(=O)(=O)c1ccc(Br)cc1,-40,0,i,5,18,17,4,-14,
Cc1ccc(CNC(=O)C2CCN(S(=O)(=O)c3ccc4c(c3)CC(C)N4C(=O)C3CC3)CC2)cc1 (stereo not given),11,2,i,-14,-1,19,-1,-13,

# More entries
SMILES,UUG fidelity,PABP FP inh,Rce1 inh,eIF4H FP inh,CSC inhib,Env fusion inh,MT1-MMP act inh,MT1-MMP act inh RFP,others
Nc1cc(N)nc(SCc2cc([N+](=O)[O-])cc3c2OCOC3)n1,-12,8,i,-1,8,-3,1,0,
O=C(O)CCC(=O)N(Cc1ccccc1)Cc1ccccc1,-17,2,i,-6,-4,3,2,5,
N#Cc1nc(-c2ccccc2F)oc1NCc1cccc2c1OCO2,-3,1,i,6,-6,/,4,6,
O=C(CSc1n[nH]c(=O)[nH]c1=O)N1CCCCCC1,-18,-3,i,5,-13,-14,4,2,
NC(=S)N/N=C/c1cccc(Br)c1,/,-3,i,5,-16,1,3,0,
CC(C)N1CC2=C(OC(N)=C(C#N)C2c2cccnc2)/C(=C/c2cccnc2)C1 (stereo not given),-20,92*,i,88*,-11,10,1,6,
NC(=S)NC1CCS(=O)(=O)C1 (stereo not given),/,18,i,-10,11,-9,2,7,
Cc1c(-c2ccncc2)oc2ccc(Br)cc2c1=O,/,3,i,-11,-5,/,/,/,
COC(=O)c1ccc2[nH]c(C3(O)CCCCC3)c(C)c2c1,-12,/,/,/,12,-45,4,-3,
O=C(Cn1cnc2ccccc2c1=O)NC1CCCc2ccccc21 (stereo not given),-13,1,i,0,-3,/,0,5,
CC1=CN2C(=NC(=O)CC2(C)C(=O)N(CC(=O)NC2CCCC2)Cc2ccccc2)C=C1 (stereo not given),-10,-8,?,-2,-10,7,0,2,
CCNc1nc(NC(C)C)nc(Nn2cnnc2)n1,-8,2,i,-3,-14,-9,6,3,
O=C(CCc1ccccc1)Nc1ccccc1C(=O)N1CCOCC1,/,5,i,-15,-6,-2,-1,-1,
CC(C)CC(=O)Nc1ccc(Nc2ccccc2)cc1,8,-4,i,-2,3,17,3,1,
O=C(Nc1cccc(C(F)(F)F)c1)n1cc(-c2ccccn2)c(N2CCOCC2)n1,/,2,i,-8,12,-6,-3,0,
CCOc1ccccc1N(C)S(=O)(=O)c1ccc2c(c1)N(C(C)=O)CCO2,-12,4,i,-18,4,-2,1,-1,
